Screens from PubChem BioAssay.
A1 apoptosis 2: blocks A1, raising caspase activity; MEF A1-2A-BIM cells, caspase-Glo luminescence, 3 h; percent of clofoctol response, DMSO zero; caspase activation, % (test concentration not listed); 24,000 tested, under 10 active; AID 2465; in the data active means caspase activation above about 5.9%; inconclusive means no clear call, values can overlap the other calls; inactive means below about 2.2%;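 further: wells of about 30 µL received 50 nL stock; the first replicate is given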
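system = A1-2A-BIM-expressing MEF cells | quantity = 2500 MEF cells/well | dosing = 50 nL compound per well, pinned | schedule = overnight cell settling, then 3 h compound exposure, 37 °C | signal = luminescence from DEVD-luciferin Caspase-Glo reagent, 1:1 in 50 mM HEPES, 1 h RT | read-out = Caspase-3/7 activation, seen as rise in luminescence signal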
An asterisk follows results filed as active; ? = inconclusive. An excerpt. The share of hits here may be higher or lower than overall.

SMILES	A1 apoptosis 2
C[C@@H]1CN([C@@H](C)CO)C(=O)c2cccc(NC(=O)Nc3ccc4c(c3)OCO4)c2O[C@@H]1CN(C)S(=O)(=O)c1ccccc1	-1.0
COc1ccc(S(=O)(=O)N(C)C[C@@H]2Oc3ccc(NC(=O)CCCN(C)C)cc3CC(=O)N([C@@H](C)CO)C[C@H]2C)cc1	1.5
C[C@@H]1CN([C@@H](C)CO)C(=O)c2cccc(NS(C)(=O)=O)c2O[C@@H]1CN(C)C(=O)NC1CCCCC1	-0.9
CCCN(C)C[C@@H]1OCCCC[C@@H](C)Oc2ccc(NC(=O)NC(C)C)cc2C(=O)N([C@H](C)CO)C[C@@H]1C	-0.5
C[C@@H]1CN([C@H](C)CO)C(=O)c2cccc(NC(=O)C3CCOCC3)c2O[C@H]1CN(C)Cc1ccc(Oc2ccccc2)cc1	-0.3
CNC[C@H]1Oc2ccc(NS(=O)(=O)c3ccc(OC)cc3)cc2C(=O)N([C@H](C)CO)C[C@H]1C	0.1
COc1ccc(NC(=O)N(C)C[C@H]2Oc3ccc(NS(=O)(=O)c4ccccc4)cc3C(=O)N([C@@H](C)CO)C[C@H]2C)cc1	0.1
C[C@@H]1CN([C@@H](C)CO)C(=O)c2cc(NC(=O)Cc3cn(C)c4ccccc34)ccc2O[C@@H]1CN(C)CC1CC1	-0.4
C[C@@H]1CN([C@H](C)CO)C(=O)c2cc(NS(=O)(=O)c3cccs3)ccc2O[C@@H](C)CCCCO[C@H]1CN(C)Cc1ccc(C(=O)O)cc1	-0.2
C[C@@H]1CCCCO[C@H](CN(C)C(=O)Cc2ccccc2)[C@@H](C)CN([C@@H](C)CO)C(=O)c2cc(NC(=O)c3ccncc3)ccc2O1	-1.2
COc1ccc(S(=O)(=O)N(C)C[C@H]2Oc3ccc(NC(=O)Nc4ccccc4)cc3CC(=O)N([C@H](C)CO)C[C@H]2C)cc1	-0.3
C[C@@H]1CN([C@@H](C)CO)C(=O)c2cc(NC(=O)CCCN(C)C)ccc2O[C@H]1CN(C)C(=O)NC1CCCCC1	-1.1
O=C(/C=C/c1ccc(OCc2ccccc2)cc1)NO	-1.4
Cc1noc(C)c1NC(=O)Nc1ccc2c(c1)C(=O)N([C@H](C)CO)C[C@H](C)[C@@H](CN(C)C(=O)Cc1ccccc1)OCCCC[C@@H](C)O2	0.7
C[C@H]1CCCCO[C@H](CN(C)C)[C@@H](C)CN([C@@H](C)CO)C(=O)c2cc(NS(=O)(=O)c3cn(C)cn3)ccc2O1	0.6
C[C@H]1CN([C@@H](C)CO)C(=O)CCCn2cc(nn2)CO[C@H]1CN(C)C(=O)NC1CCCCC1	-0.2
Cc1noc(C)c1S(=O)(=O)Nc1cccc2c1O[C@H](CN(C)C(=O)Nc1ccc3c(c1)OCO3)[C@H](C)CN([C@H](C)CO)C2=O	-0.3
Cc1noc(C)c1S(=O)(=O)N(C)C[C@H]1OCCCC[C@@H](C)Oc2ccc(NS(C)(=O)=O)cc2C(=O)N([C@@H](C)CO)C[C@H]1C	-1.7
O=C(N/N=C/c1ccc(I)cc1)c1ccccc1O	-7.9
C[C@@H]1CCCCO[C@@H](CN(C)C)[C@@H](C)CN([C@@H](C)CO)C(=O)c2cc(NS(=O)(=O)c3ccc(Cl)cc3)ccc2O1	-0.3
C[C@@H]1CN([C@@H](C)CO)C(=O)c2cc(NC(=O)c3ccncc3)ccc2O[C@@H](C)CCCCO[C@@H]1CN(C)S(=O)(=O)c1ccccc1	2.0
COc1ccc(CN(C)C[C@@H]2Oc3c(NS(=O)(=O)c4ccccc4)cccc3C(=O)N([C@@H](C)CO)C[C@@H]2C)cc1	0.7
C[C@@H]1CCCCO[C@@H](CN(C)C(=O)CCC(F)(F)F)[C@@H](C)CN([C@H](C)CO)C(=O)c2cc(N(C)C)ccc2O1	0.4
C[C@@H]1CN([C@@H](C)CO)C(=O)Cc2cc(NC(=O)Cn3cnnn3)ccc2O[C@H]1CN(C)Cc1ccc(C(=O)O)cc1	0.3
C[C@H](CO)N1C[C@H](C)[C@H](CN(C)C(=O)C2CCCCC2)OCCCC[C@H](C)Oc2ccc(N(C)C)cc2C1=O	-0.2
C[C@@H]1CN([C@@H](C)CO)C(=O)c2cccc(NC(=O)Nc3ccccc3)c2O[C@H]1CN(C)C(=O)NC1CCCCC1	-0.7
Cc1noc(C)c1NC(=O)N(C)C[C@H]1Oc2ccc(NS(=O)(=O)c3ccc(F)cc3)cc2C(=O)N([C@@H](C)CO)C[C@H]1C	-0.1
C[C@@H]1CCCCO[C@H](CN(C)C(=O)c2ccccc2)[C@H](C)CN([C@H](C)CO)C(=O)c2cc(NS(=O)(=O)c3ccc(Cl)cc3)ccc2O1	1.4
Cc1ccc(S(=O)(=O)N(C)C[C@@H]2Oc3ccc(NS(=O)(=O)c4cccs4)cc3C(=O)N([C@@H](C)CO)C[C@H]2C)cc1	-0.5
CNC[C@H]1Oc2ccc(NS(=O)(=O)c3ccccc3)cc2C(=O)N([C@@H](C)CO)C[C@H]1C	0.7

Sorted by SMILES length (descending): some entries from above
SMILES	A1 apoptosis 2
C[C@H]1CCCCO[C@H](CN(C)C)[C@@H](C)CN([C@@H](C)CO)C(=O)c2cc(NS(=O)(=O)c3cn(C)cn3)ccc2O1	0.6
COc1ccc(NC(=O)N(C)C[C@H]2Oc3ccc(NS(=O)(=O)c4ccccc4)cc3C(=O)N([C@@H](C)CO)C[C@H]2C)cc1	0.1
C[C@@H]1CN([C@H](C)CO)C(=O)c2cccc(NC(=O)C3CCOCC3)c2O[C@H]1CN(C)Cc1ccc(Oc2ccccc2)cc1	-0.3

Next section
SMILES	A1 apoptosis 2
CNC[C@@H]1Oc2ccc(NC(=O)Cc3ccccc3)cc2CC(=O)N([C@H](C)CO)C[C@@H]1C	1.5
C[C@@H]1CN([C@@H](C)CO)C(=O)Cc2cc(N(C)C)ccc2O[C@@H]1CN(C)C(=O)NC1CCCCC1	-0.4
C[C@@H]1CN([C@H](C)CO)C(=O)c2cccc(NC(=O)c3cnccn3)c2O[C@H]1CN(C)C(=O)NC1CCCCC1	-0.1
C[C@H](CO)N1C[C@H](C)[C@H](CN(C)C(=O)Nc2cccc3ccccc23)Oc2ccc(NC(=O)CCN3CCOCC3)cc2C1=O	-1.3
Cc1ccc(S(=O)(=O)Nc2ccc3c(c2)CC(=O)N([C@H](C)CO)C[C@H](C)[C@H](CN(C)C(=O)Nc2c(C)noc2C)O3)cc1	0.4
C[C@@H]1CN([C@@H](C)CO)C(=O)Cc2cc(NS(C)(=O)=O)ccc2O[C@@H]1CN(C)S(=O)(=O)c1ccccc1	-0.2
CC(C)CNC(=O)[C@@]1(C)c2ccccc2C(=O)N(Cc2cc(F)cc(C(F)(F)F)c2)[C@H]1c1ccc(CO)cc1	-1.0
CC(C)NC(=O)Nc1ccc2c(c1)CC(=O)N([C@H](C)CO)C[C@H](C)[C@H](CN(C)S(C)(=O)=O)O2	1.3
COc1ccc(NC(=O)N(C)C[C@@H]2OCCCC[C@@H](C)Oc3ccc(NS(=O)(=O)c4ccc(Cl)cc4)cc3C(=O)N([C@@H](C)CO)C[C@H]2C)cc1	0.4
C[C@H]1CN([C@@H](C)CO)C(=O)c2cccc(NC(=O)Nc3ccccc3)c2O[C@@H]1CN(C)Cc1ccc(C(=O)Nc2ccccc2N)cc1	-0.8
C[C@@H]1CN([C@H](C)CO)C(=O)c2cccc(NC(=O)Nc3ccc4c(c3)OCO4)c2O[C@@H]1CN(C)C	-0.3
COc1ccc(CN(C)C[C@@H]2OCCCC[C@@H](C)Oc3ccc(NC(=O)Nc4ccc(F)cc4)cc3C(=O)N([C@@H](C)CO)C[C@@H]2C)cc1	-1.0
C[C@@H]1CN([C@H](C)CO)C(=O)c2cc(NS(=O)(=O)c3ccccc3)ccc2O[C@@H](C)CCCCO[C@@H]1CN(C)Cc1ccncc1	-0.3
C[C@@H]1CN([C@H](C)CO)C(=O)c2cccc(NC(=O)Nc3ccc(F)cc3)c2O[C@@H]1CN(C)C(=O)Nc1ccc(C(F)(F)F)cc1	0.2
C[C@H](CO)N1C[C@H](C)[C@@H](CN(C)S(C)(=O)=O)Oc2c(cccc2N(C)C)C1=O	0.0
COc1ccc(S(=O)(=O)N(C)C[C@@H]2Oc3ccc(N(C)C)cc3C(=O)N([C@@H](C)CO)C[C@H]2C)cc1	0.6
C[C@H]1CN([C@@H](C)CO)C(=O)c2cc(NC(=O)Nc3cccc4ccccc34)ccc2O[C@@H]1CN(C)Cc1ccncc1	0.3
C[C@@H]1CCCCO[C@@H](CN(C)S(=O)(=O)c2ccc(Cl)cc2)[C@H](C)CN([C@@H](C)CO)C(=O)c2cc(NC(=O)CCCN(C)C)ccc2O1	-0.2
C[C@H]1CN([C@@H](C)CO)C(=O)c2cc(NC(=O)CCC(F)(F)F)ccc2O[C@@H]1CN(C)C(=O)Nc1ccc(F)cc1	0.8
C[C@@H]1CN([C@H](C)CO)C(=O)c2cc(NC(=O)NC3CCCCC3)ccc2O[C@H]1CN(C)S(=O)(=O)c1ccccc1	0.4
Cc1noc(C)c1NC(=O)Nc1ccc2c(c1)C(=O)N([C@H](C)CO)C[C@H](C)[C@H](CN(C)C(=O)C1CCCCC1)OCCCC[C@@H](C)O2	-0.3
C[C@@H]1CCCCO[C@@H](CN(C)C(=O)Cc2ccccc2)[C@H](C)CN([C@@H](C)CO)C(=O)c2cc(NC(=O)CCC(F)(F)F)ccc2O1	0.3
Cc1noc(C)c1NC(=O)N(C)C[C@H]1Oc2c(NC(=O)Nc3ccc(F)cc3)cccc2C(=O)N([C@@H](C)CO)C[C@H]1C	-1.0
C[C@H]1CN([C@@H](C)CO)C(=O)c2cc(NC(=O)C3CC3)ccc2O[C@@H]1CN(C)Cc1ccc(C(=O)O)cc1	0.8
COc1ccc(NC(=O)Nc2ccc3c(c2)C(=O)N([C@@H](C)CO)C[C@H](C)[C@@H](CN(C)S(=O)(=O)c2ccccc2)O3)cc1	-0.8
C[C@@H]1CN([C@H](C)CO)C(=O)c2cc(NS(=O)(=O)c3cccs3)ccc2O[C@@H]1CN(C)S(=O)(=O)c1cn(C)cn1	-0.4
Cc1cc(C(=O)Nc2cccc3c2O[C@@H](CN(C)S(=O)(=O)c2cccs2)[C@H](C)CN([C@@H](C)CO)C3=O)n(C)n1	0.3
C[C@H](CO)N1C[C@H](C)[C@H](CN(C)C(=O)Nc2ccc(F)cc2)OCCCC[C@H](C)Oc2ccc(NC(=O)Nc3ccc4c(c3)OCO4)cc2C1=O	0.5
C[C@@H]1CN([C@@H](C)CO)C(=O)Cc2cc(NC(=O)Nc3cccc4ccccc34)ccc2O[C@H]1CN(C)C(=O)NC1CCCCC1	0.5
COc1ccc(NC(=O)Nc2ccc3c(c2)C(=O)N([C@@H](C)CO)C[C@H](C)[C@@H](CN(C)C(=O)CCC(F)(F)F)OCCCC[C@@H](C)O3)cc1	-0.5
C[C@H](CO)N1C[C@H](C)[C@H](CN(C)C(=O)NC2CCCCC2)Oc2ccc(NC(=O)C3CC3)cc2C1=O	-1.8
C[C@H](CO)N1C[C@H](C)[C@@H](CN(C)Cc2ccccc2)OCCCC[C@H](C)Oc2ccc(NC(=O)Nc3ccc(F)cc3)cc2C1=O	?
CC(C)NC(=O)Nc1ccc2c(c1)C(=O)N([C@@H](C)CO)C[C@@H](C)[C@H](CN(C)C(=O)NC(C)C)OCCCC[C@H](C)O2	1.5
C[C@H]1CN([C@@H](C)CO)C(=O)Cc2cc(NC(=O)C3CCCCC3)ccc2O[C@@H]1CN(C)C(=O)Nc1ccc(F)cc1	0.4
COc1ccc([Si](C)(C)[C@@H]2[C@@H](CCO)O[C@]3(C(=O)N(Cc4cccc(NC(=O)[C@H](C)O)c4)c4ccccc43)[C@H]2C)cc1	-0.3
Cc1ccc(S(=O)(=O)N(C)C[C@@H]2OCCCC[C@H](C)Oc3ccc(NC(=O)c4ccncc4)cc3C(=O)N([C@@H](C)CO)C[C@H]2C)cc1	1.1
C[C@H](CO)N1C[C@H](C)[C@H](CN(C)Cc2ccccc2)Oc2ccc(NC(=O)Cc3ccccc3)cc2C1=O	1.3
C[C@@H]1CN([C@H](C)CO)C(=O)c2cccc(NS(=O)(=O)c3ccc(Cl)cc3)c2O[C@@H]1CN(C)Cc1ccc2c(c1)OCO2	-0.6
C[C@@H]1CN([C@@H](C)CO)C(=O)c2cc(NC(=O)C3CCCCC3)ccc2O[C@H]1CN(C)C(=O)Nc1ccccc1	0.0
C[C@@H]1CCCCO[C@H](CN(C)C)[C@H](C)CN([C@@H](C)CO)C(=O)c2cc(N(C)C)ccc2O1	0.2
C[C@@H]1CCCCO[C@@H](CN(C)C(=O)Nc2ccc3c(c2)OCO3)[C@@H](C)CN([C@H](C)CO)C(=O)c2cc(NC(=O)Cc3ccccc3)ccc2O1	-1.4

A few values from the list.
A1 apoptosis 2 with `C[C@H](CO)N1C[C@H](C)[C@@H](CN(C)S(C)(=O)=O)Oc2c(cccc2N(C)C)C1=O` is entered as 0.0
A1 apoptosis 2 with `C[C@H]1CN([C@@H](C)CO)C(=O)c2cc(NC(=O)CCC(F)(F)F)ccc2O[C@@H]1CN(C)C(=O)Nc1ccc(F)cc1` is entered as 0.8
A1 apoptosis 2 with `C[C@@H]1CCCCO[C@H](CN(C)C)[C@H](C)CN([C@@H](C)CO)C(=O)c2cc(N(C)C)ccc2O1` is entered as 0.2
A1 apoptosis 2 with `COc1ccc(NC(=O)Nc2ccc3c(c2)C(=O)N([C@@H](C)CO)C[C@H](C)[C@@H](CN(C)C(=O)CCC(F)(F)F)OCCCC[C@@H](C)O3)cc1` is entered as -0.5
A1 apoptosis 2 with `COc1ccc(NC(=O)N(C)C[C@@H]2OCCCC[C@@H](C)Oc3ccc(NS(=O)(=O)c4ccc(Cl)cc4)cc3C(=O)N([C@@H](C)CO)C[C@H]2C)cc1` is entered as 0.4
